From PubChem
GIV Gai3 FP: GIV-Galpha-i interaction inhibition. P08753. Galpha-i3/FITC-GIV peptide fluorescence polarization, 90 min; stronger effect = lower value; scaled: aluminum fluoride 0%, vehicle 100%. percent of control (FP), % (test concentration not listed). 210,000 tested, 0.42% active;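 active = replicate mean at 85% of control or lower, very high polarization wells dropped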;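 note: wells of about 15 µL received 100 nL stock; the first replicate is given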
Target sequence (P08753 whole entry, looked up): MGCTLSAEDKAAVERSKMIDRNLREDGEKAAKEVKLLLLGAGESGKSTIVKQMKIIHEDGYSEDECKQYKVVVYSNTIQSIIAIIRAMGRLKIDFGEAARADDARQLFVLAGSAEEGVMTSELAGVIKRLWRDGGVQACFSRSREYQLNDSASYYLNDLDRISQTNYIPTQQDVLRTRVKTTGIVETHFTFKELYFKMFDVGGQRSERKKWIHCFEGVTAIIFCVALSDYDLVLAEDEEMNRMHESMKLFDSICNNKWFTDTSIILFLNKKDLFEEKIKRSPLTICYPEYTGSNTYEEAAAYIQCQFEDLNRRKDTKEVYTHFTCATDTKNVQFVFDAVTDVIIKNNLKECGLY
Sa growth 42C: blocks Staphylococcus aureus growth. 170,000 tested, 0.53% active. AID 720641. S. aureus RN4220 growth, OD600, 20 h, 42 °C; stronger effect = lower value. relative growth, % (test concentration not listed);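 active = growth at 42 °C up to 50% and 20 or more points under that at 30 °C, or under 10% at both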;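 note: 300 nL library stock went into each well; scaled to the means of positive and negative controls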
HCMV NEC inh: inhibitors of HCMV UL50-UL53 nuclear egress complex interaction; HTRF UL50-UL53 interaction, normalized percent inhibition; inhibition, % (no concentration beside the values); 190,000 tested, 0.15% active;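 active = both replicates at 50% or more, plus weaker picks with an unusually low signal ratio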;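 note: stock transfer was 100 nL into about 20 µL; 0% = negative control wells and 100% = wells with untagged competitor protein; inactives centre near -12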
Sa growth 42C second temp: recorded beside Sa growth 42C, whose call it bears; relative growth, %; measured here: growth at 30 °C;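 optical density after 20 h as mean of two plates; 100% = untreated growth and lower means inhibition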
An asterisk follows results filed as active; . = no result given; & = joins results of further samples.

SMILES	GIV Gai3 FP	Sa growth 42C	Sa growth 42C second temp	HCMV NEC inh
Cc1ccc(C(=O)Oc2cc(C)cc(OC(=O)c3ccc(C)cc3)c2)cc1	100	102	83	.
CC1CCC(C(=O)NC(Cc2c[nH]c3ccccc23)C(=O)Nc2ccncc2)CC1 (stereo not drawn)	100	.	.	-28
O=C(CSc1nc2ccccc2n1Cc1cccc(F)c1)N1CCN(c2ccc(F)cc2)CC1	100&101	109	84	-30&16
Cc1noc(C)c1NC(=O)NC1CCCc2ccccc21 (stereo not drawn)	104	90	77	-19
CCOC(=O)c1c(-c2ccccc2)csc1NC(=O)C(F)(F)F	.	88	75	-8
CC(C)c1cnc2c(c1SCC(=O)NC(C)(C)C)c(=O)n(C)c(=O)n2C	100	80	88	.
COC(=O)CC1=CC(SCC(=O)Nc2cccc(C)c2)=Nc2ccccc2N1	110	.	.	-39
CC1CC(C)CN(S(=O)(=O)c2ccc(F)c(C(=O)NCc3ccccc3)c2)C1 (stereo not drawn)	103	115	84	.
CC(C)(C)C(=O)Oc1ccc2cc(-c3ccc4ccccc4n3)c(=O)oc2c1	146	62	81	.
COc1ccc(S(=O)(=O)N2CCc3cc4cc(C)ccc4nc32)cc1	108	.	.	-1
c1ccc2[nH]c(-c3nn4c(C5CCCCC5)nnc4s3)cc2c1	106	.	.	-7
Cc1ccc(-c2nc3c4ccccc4n(CC(=O)NCc4ccc(F)cc4)c(=O)n3n2)cc1	102	118	98	.
CCOC(=O)C1=C(C)NC(S)=C(C#N)C1c1ccsc1 (stereo not drawn)	107	.	.	-21
CC1Cc2ccccc2N1S(=O)(=O)c1ccc2c(c1)CCN2C(=O)CCC(=O)N1CCOCC1 (stereo not drawn)	100	.	.	-25
CCOC(=O)c1sc2nc(CC(=O)OC)nc(Nc3cc(OC)ccc3OC)c2c1C	114	.	.	-7
COC(=O)Cn1c(=NC(=O)c2ccc(S(=O)(=O)N3CCCC3)cc2)sc2cc(NC(C)=O)ccc21	102	102	79	-25
CCCc1nc2c(sc(=S)n2-c2ccccc2)c(=O)[nH]1	.	103	92	3
Cc1ccccc1NS(=O)(=O)c1ccc2[nH]cc(C(=O)NCCCN3CCOCC3)c(=O)c2c1	101	96	94	4
CCc1nnc(NC(=O)C2c3ccccc3C(=O)N(C)C2c2cccs2)s1 (stereo not drawn)	102	85	89	-10
Cc1cc(C(=O)NCCC(C)C)c2c(=O)n(C)c(=O)n(C)c2n1	104	.	.	-27

17 compounds out of the list, ordered by molar mass, low to high.
SMILES	GIV Gai3 FP	Sa growth 42C	Sa growth 42C second temp	HCMV NEC inh
Cc1noc(C)c1NC(=O)NC1CCCc2ccccc21 (stereo not drawn)	104	90	77	-19
CCCc1nc2c(sc(=S)n2-c2ccccc2)c(=O)[nH]1	.	103	92	3
CCOC(=O)C1=C(C)NC(S)=C(C#N)C1c1ccsc1 (stereo not drawn)	107	.	.	-21
Cc1cc(C(=O)NCCC(C)C)c2c(=O)n(C)c(=O)n(C)c2n1	104	.	.	-27
CCOC(=O)c1c(-c2ccccc2)csc1NC(=O)C(F)(F)F	.	88	75	-8
COc1ccc(S(=O)(=O)N2CCc3cc4cc(C)ccc4nc32)cc1	108	.	.	-1
CC(C)(C)C(=O)Oc1ccc2cc(-c3ccc4ccccc4n3)c(=O)oc2c1	146	62	81	.
CC(C)c1cnc2c(c1SCC(=O)NC(C)(C)C)c(=O)n(C)c(=O)n2C	100	80	88	.
COC(=O)CC1=CC(SCC(=O)Nc2cccc(C)c2)=Nc2ccccc2N1	110	.	.	-39
CCc1nnc(NC(=O)C2c3ccccc3C(=O)N(C)C2c2cccs2)s1 (stereo not drawn)	102	85	89	-10
CC1CCC(C(=O)NC(Cc2c[nH]c3ccccc23)C(=O)Nc2ccncc2)CC1 (stereo not drawn)	100	.	.	-28
Cc1ccc(-c2nc3c4ccccc4n(CC(=O)NCc4ccc(F)cc4)c(=O)n3n2)cc1	102	118	98	.
CCOC(=O)c1sc2nc(CC(=O)OC)nc(Nc3cc(OC)ccc3OC)c2c1C	114	.	.	-7
O=C(CSc1nc2ccccc2n1Cc1cccc(F)c1)N1CCN(c2ccc(F)cc2)CC1	100&101	109	84	-30&16
CC1Cc2ccccc2N1S(=O)(=O)c1ccc2c(c1)CCN2C(=O)CCC(=O)N1CCOCC1 (stereo not drawn)	100	.	.	-25
Cc1ccccc1NS(=O)(=O)c1ccc2[nH]cc(C(=O)NCCCN3CCOCC3)c(=O)c2c1	101	96	94	4
COC(=O)Cn1c(=NC(=O)c2ccc(S(=O)(=O)N3CCCC3)cc2)sc2cc(NC(C)=O)ccc21	102	102	79	-25

The list goes on.
SMILES	GIV Gai3 FP	Sa growth 42C	Sa growth 42C second temp	HCMV NEC inh
COC(=O)Nc1c(C)cc(C)cc1C	.	93	93	-10
CCN(CC)C(=O)Cn1c(=O)n(CC2CCC(C(=O)N3CCCCC3)CC2)c(=O)c2sccc21 (stereo not drawn)	104	.	.	-20
Cc1ccc(C(=O)c2cn(CC(=O)Nc3ccc(C(C)C)cc3)c3nc(C)ccc3c2=O)cc1	109	91	89	.
CC(C)C(=O)Nc1ccccc1C(F)(F)F	.	91	84	-17
CN(CC(=O)Nc1sccc1C#N)C1CCCCC1	.	114	93	8
COc1ccc(P(=O)(CC(=O)O)c2ccc(OC)cc2)cc1	108	119	107	5
CCNc1nc2c(c(=O)n(C)c(=O)n2C)n1CC(O)COc1ccccc1 (stereo not drawn)	104	103	91	1
C/C(=C/C(=O)C(F)(F)F)N1CCN(S(=O)(=O)/C=C/c2ccccc2)CC1	.	83	89	-15
Cc1c(C(=O)Cc2c(O)c3ccccc3oc2=O)sc2nc(C(F)(F)F)nn12	100	108	98	14
C/C(=N\NC(=O)c1ccccn1)c1ccc(OC(F)F)cc1OC(F)F	.	97	99	1
O=C(NCCCO)c1nc2ccccc2s1	104	116	91	-8
CCCCSc1nnc2c(n1)OC(c1ccc(N(C)C)cc1)N(C(C)=O)c1ccccc1-2 (stereo not drawn)	100	.	.	-46
Cc1noc(C)c1COC(=O)c1cccc(S(=O)(=O)N2c3ccccc3CC2C)c1 (stereo not drawn)	.	109	94	-12
Clc1ccc(C(CNc2nn3cnnc3c3ccccc23)N2CCCCC2)cc1 (stereo not drawn)	104	.	.	-20
CCOc1ccccc1NC(=O)Nc1nnc(N(C)Cc2ccccc2)s1	99	95	99	-5
CC(C)CCNC(=O)C1CCN(c2nc3ccccc3o2)CC1	99&104	97	89	.
O=C(Nc1cccnc1)c1ccccc1Oc1ccccc1	102	90	67	-2
Cc1ccc(-c2nnc(SC(C)c3ccccc3)n2N)cc1 (stereo not drawn)	.	88	95	-6
CC(=O)Nc1ccc2nc(SCc3c(Cl)cccc3[N+](=O)[O-])sc2c1	115	.	.	-14
CCOc1cc2c(cc1CNC(=O)c1cccnc1)OC(C)C2 (stereo not drawn)	.	76	85	-26
CCOC(=O)c1noc(NC(=O)Cc2ccccc2OC)c1-c1ccccc1	.	92	93	2
O=C(CSc1nc(=O)n(Cc2ccco2)c2c1CCC2)NCc1ccccc1Cl	100	146	88	.
c1ccc(-c2noc(CN3CCN(c4ccccc4)CC3)n2)cc1	100	.	.	-14
COc1cc(OC)c(OC)cc1CN1CCN(S(=O)(=O)c2ccc(NC(C)=O)cc2)CC1	100	100	81	-38
CCc1nnc(NC(=O)Nc2ccc3c(c2)N(C)C(=O)CS3)s1	102	99	83	.
COc1ccc(NC(=O)c2cc(C)nc3c2c(=O)n(C)c(=O)n3C)cc1OC	103	.	.	-17
CC1(C)OC(=O)C(=CNC(CCC(=O)O)C(=O)O)C(=O)O1 (stereo not drawn)	103	94	89	-16
CC1C(=O)N2CCCc3cc(S(=O)(=O)N4CCc5ccccc54)cc1c32 (stereo not drawn)	99	98	84	-13
CCC(C)n1c(SCc2ccccc2)nc2ccsc2c1=O (stereo not drawn)	96	93	92	3
Cc1ccc(SCC(=O)Nc2ccc(C#N)cc2)cc1	106	92	78	-3
COc1ccc(-c2nc3ccccc3o2)cc1NC(C)=O	106	93	72	-19
Cc1ccc(C)c(Cn2c(=O)n(CCCC(=O)NCc3ccco3)c(=O)c3sccc32)c1	95	89	84	-22
O=C(O)C1CCCCC1C(=O)Nc1nncs1 (stereo not drawn)	107	108	107	-20
O=C(O)c1cccc(-n2cccc2C=C2C(=O)c3ccccc3C2=O)c1	107	108	71	.
COc1cc(NC(=O)CCc2c(C)nc3nc(-c4cc(OC)cc(OC)c4)nn3c2C)cc(OC)c1	98	90	98	0
CC(C)NC(=O)C(C)Oc1ccccc1 (stereo not drawn)	103	93	101	-27
Cc1ccc(-c2cc(C(=O)N3CCN(c4ccccc4)CC3)c3ccccc3n2)cc1C	110	119	101	.
O=C(/C=C/c1ccc(S(=O)(=O)N2CCOCC2)cc1)NC(=S)NC1CC1	.	77	85	-33
CCOC(=O)C1=C(O)/C(=C/c2ccco2)SC1=Nc1ccc(F)cc1	121	101	76	-14
CN1C(=O)C2(c3ccccc31)N(c1cccc(C(F)(F)F)c1)C(=O)CS2(=O)=O (stereo not drawn)	105	107	88	.
Cn1ccnc1C(=O)c1cc(-c2ccco2)nc2ccccc12	.	117	102	-24
CCOC(=O)CCc1cccc2c1CCC2=O	99	110	80	-16
CCOC(=O)c1cc(Cl)c(C(=O)OCC)cc1Cl	.	82	85	-35
CC1=CC(C)=NCCN1	99	77	89	1
CCOC(=O)c1cc2occc2n1CC(=O)N1CCCc2ccccc21	98	122	95	6
CC(C)(C)c1ccc(OCC(O)Cn2c(CO)nc3ccccc32)cc1 (stereo not drawn)	99	.	.	-22
CCCn1c(C(C)O)nc2ccccc21 (stereo not drawn)	100	101	97	9
O=C(O)CCC(=O)c1c[nH]c2ccccc12	.	91	76	-13
COc1ccc(-c2onc(C)c2C)cc1S(=O)(=O)Nc1cccc(C#N)c1	106	104	97	.
COc1ccc(OC)c(Nc2nc3nonc3nc2Nc2c(C)n(C)n(-c3ccccc3)c2=O)c1	97	.	.	-22
O=C(c1cc(-c2ccc3c(c2)OCCO3)on1)N(Cc1ccc(F)cc1)C1CCS(=O)(=O)C1 (stereo not drawn)	97	.	.	-5
N/C(=N\OC(=O)NC1CCCCC1)c1ccc(Cl)cc1	103	94	96	9
CCC(C)Sc1nc2c(c(=O)[nH]c(=O)n2C)n1C (stereo not drawn)	100	.	.	-9
COc1cccc(CC(=O)Nc2ccc3nc(N4CCC(C)CC4)cc(C)c3c2)c1	101	93	78	-14
CCC(C)c1ccc(NC(=O)CN(CC)Cc2nc3ccccc3c(=O)[nH]2)cc1 (stereo not drawn)	.	81	94	-18
Cc1ccc(S(=O)(=O)c2nc(S(=O)(=O)c3ccccc3)sc2N2CCCC2)cc1	104	110	89	-13
CCN(CC)S(=O)(=O)c1ccc2oc(C(=O)O)c(C)c2c1	102	100	93	.
O=C(CCCn1c(=O)c2ccccc2n(CC(=O)Nc2ccc(F)cc2F)c1=O)NCc1ccccc1Cl	106	104	92	24
CCC(C)(C)NS(=O)(=O)c1cccs1	105	106	79	-10
CCOC(=O)CSc1nc2ccc(N)cc2s1	97	.	.	-22
(next part)
SMILES	GIV Gai3 FP	Sa growth 42C	Sa growth 42C second temp	HCMV NEC inh
COCC(C)NC(=O)c1cnc2sc(C)c(C)n2c1=O (stereo not drawn)	109	.	.	-2
Cc1cccc(OCCNC(=O)c2sc3nc[nH]c(=O)c3c2C)c1	.	82	76	-5
CCOc1ccc(N2C(=O)c3[nH]nc(-c4ccc(OC)cc4)c3C2c2cccs2)cc1 (stereo not drawn)	108	102	86	-5
Cc1c(/C=N/N=c2\sc3ccccc3n2C)n(C)n(-c2ccccc2)c1=O	.	94	85	-24
COc1ccc2c(c1)C=C(C(=O)N1CCN(c3ccccn3)CC1)CO2	103	.	.	-51
Cc1ccc(NC(=O)CCc2nnc3ccc(NCCCc4ccccc4)nn23)cc1	103&99	101	93	-29
N#CCCN(C(=O)C12CC3CC(CC(Cl)(C3)C1)C2)c1ccccc1	.	91	89	-17
COC(=O)c1cc2oc(C)cc2n1Cc1ccc(Cl)cc1	101	95	90	.
CCc1ccc(-n2c3nc(=O)[nH]c(=O)c-3cc3c(C)nn(-c4ccccc4)c32)cc1	100	103	90	-17
CN(C)c1ccc(NS(=O)(=O)N2CCOCC2)cc1C(=O)O	99	.	.	-15
Cc1cc(C)c(S(=O)(=O)NCC(=O)N2CCc3ccccc3C2)c(C)c1	106	97	90	1
CC(OC(=O)c1cccn1C)C(=O)Nc1ccccc1C#N (stereo not drawn)	.	96	96	-8
Cc1cccc(N2CCN(C(=O)CSCc3c(C)noc3C)CC2)c1C	.	86	91	-15
COc1ccc(-c2cc(OC(=O)c3ccccc3C)c3c(C)oc(C)c3c(=O)c2)cc1OC	112	.	.	-35
O=C(COCc1cc(-c2ccco2)on1)NC1CCCC1	102	92	95	-29
Cc1ccc(C)c(NC(=O)Cn2cnc3c(oc4ccccc43)c2=O)c1	102	110	94	.
Cn1ccnc1Sc1ncnc2sccc12	.	87	90	-7
CC(NC(=O)C1CCCN(C(=O)c2cc3sccc3n2C)C1)c1ccccc1 (stereo not drawn)	98	85	85	-15
CCCCNC(=O)C1CCCN(c2ccnc(-c3ccc(F)cc3)n2)C1 (stereo not drawn)	108	.	.	-28
CC(=O)c1ccc(NC(=O)Nc2ccc3snnc3c2)cc1	107	101	63	-24
COC(=O)c1c(NC(=O)c2ccc(S(=O)(=O)N3CCCCC3C)cc2)sc2c1CCN(C(C)C)C2 (stereo not drawn)	146	125	101	.
c1ccc(-c2csc3ncnc(NCc4ccccn4)c23)cc1	102	106	79	.
O=C(c1ccco1)N1CCCC(C(F)(F)F)C1 (stereo not drawn)	.	109	98	-34
COc1ccc(N2CCN(CC(O)COc3ccc(C)c(C)c3)CC2)cc1 (stereo not drawn)	101	123	95	.
